# Screens deposited in PubChem BioAssay by several laboratories.
# E coli growth – E. coli growth inhibition, primary screen, OD600; hit rate 0.21% among 330,000; OD600 absorbance (no concentration beside the values); AID 1053175, 2014; Escherichia coli growth, 23 h; active compounds read low;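 active = OD600 absorbance below the run mean of sample wells minus 3.6 SD, in any replicate, cut at about 0.56 in these data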;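 note: stock transfer was 300 nL into about 60 µL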
# HNF4A DNA FP – change in binding of human HNF4A to DNA, primary screen, biochemical, fluorescence polarization, FITC-DNA | Hepatocyte nuclear factor 4-alpha (Homo sapiens), P41235 | 1 h | activity change, % at 10 µM | hit rate 0.3% among 360,000; in the data active = activity change above about 30%, passing the limit was not always enough;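 note: controls were the assay level and a saturating level of protein; the project sought stronger binding though the title names inhibitors; some compounds called inactive have numbers as strong as hits; positive values seem to mean higher polarization but the record does not say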
# FGF22 binding – binders of human FGF22 protein, primary screen, FGF22 synaptogenesis inhibitor project, biophysical, thermal shift, single point; Fibroblast growth factor 22 (Homo sapiens), Q9HCT0; recombinant FGF22 thermal shift, SYPRO orange fluorescence; percent of sucrose octasulfate shift, DMSO zero; calls only at 9.99 µM; hit rate 1.5% among 340,000; AID 651658, 2012;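 active = melting point raised past a set limit in the mean and every replicate; three in four hits are not shown here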
# Target sequence (Q9HCT0 whole entry, looked up): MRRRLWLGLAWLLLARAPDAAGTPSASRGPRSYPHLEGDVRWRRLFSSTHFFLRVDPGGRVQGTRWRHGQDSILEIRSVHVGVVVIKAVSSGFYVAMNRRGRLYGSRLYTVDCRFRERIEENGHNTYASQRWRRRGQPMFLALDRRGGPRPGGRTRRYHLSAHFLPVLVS
# UCH37 DUB inh – inhibitors of human UCH37 deubiquitinase, primary screen, biochemical, Ub-AMC cleavage, fluorescence | Ubiquitin carboxyl-terminal hydrolase isozyme L5 (Homo sapiens), Q9Y5K5 | AID 588478, 2011 | purified proteasome/UCH37 | inhibition, % (no concentration beside the values) | hit rate 0.33% among 330,000;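 active = mean of two replicates above 20%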;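 note: 0% = compound-free wells with enzyme and 100% = wells lacking proteasome; stock transfer was 100 nL into about 20 µL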
# Target sequence (Q9Y5K5 whole entry, looked up): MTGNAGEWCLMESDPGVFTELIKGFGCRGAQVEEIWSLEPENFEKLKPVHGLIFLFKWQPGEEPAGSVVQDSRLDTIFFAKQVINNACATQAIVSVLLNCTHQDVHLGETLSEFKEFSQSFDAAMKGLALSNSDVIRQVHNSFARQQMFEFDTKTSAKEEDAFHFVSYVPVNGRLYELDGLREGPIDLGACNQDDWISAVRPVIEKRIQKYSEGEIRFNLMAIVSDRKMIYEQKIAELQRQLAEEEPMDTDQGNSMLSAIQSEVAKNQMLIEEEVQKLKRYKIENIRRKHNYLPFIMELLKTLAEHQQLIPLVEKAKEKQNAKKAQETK
#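 Test system – human UCH37 enzyme supplied as purified proteasome complex · Incubation – 30 min preincubation with enzyme, 25 min cleavage at room temperature · Detection – AMC fluorescence from Ub-AMC cleavage, excitation 355 nm, emission 460 nm · Benchmarks – no-proteasome wells (full inhibition) and compound-free wells (no inhibition)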
# ALR H2O2 inh – inhibitors of human ALR sulfhydryl oxidase, primary screen, biochemical, H2O2 detection, HRP-luminol luminescence, single point; purified ALR, DTT oxidation; hit rate 3.8% among 290,000; inhibition, % (concentration not given with the values);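 active = mean and each replicate at 75% or more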;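 note: stock transfer was 7.5 nL into about 7.5 µL; 0% = neutral wells and 100% = wells with inactivated enzyme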
# Target sequence (P55789 whole entry, looked up): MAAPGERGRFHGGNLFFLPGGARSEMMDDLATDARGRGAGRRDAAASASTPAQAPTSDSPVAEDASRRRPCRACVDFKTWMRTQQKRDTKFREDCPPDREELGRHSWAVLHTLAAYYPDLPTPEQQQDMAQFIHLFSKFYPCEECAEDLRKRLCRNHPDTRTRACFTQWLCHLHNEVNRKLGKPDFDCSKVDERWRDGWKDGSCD
# Beta2AR agonist – beta2AR agonists driving receptor internalization, primary screen, cell-based, FAP fluorogen, flow cytometry | Beta-2 adrenergic receptor (Homo sapiens), P07550 | Am2.2-beta2AR cells; reference of the scale not given here | response, % (test concentration not listed) | hit rate 0.43% among 340,000 | AID 504454, 2011;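 active = response above a set limit, near 3 SD of response in nonfluorescent compounds, cut at about 42% in these data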;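 note: stock transfer was 100 nL into about 11 µL; a reference agonist was the positive control; negative values mostly stem from fluorescent compounds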
# Ecoli rRNA inh – reduced GFP signal of wild-type E. coli, primary screen, bacterial rRNA inhibitor project, GFP/RFP fluorescence, OD600, single point. hit rate 1.6% among 350,000. AID 720706, 2013. GFP signal change (wild-type ribosome), % (test concentration not listed). E. coli WT GFP vs humanized-ribosome RFP mutants, 24 h; active compounds read low; DMSO median 0, no signal -100;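 active = significant combined selectivity score with lowered wild-type GFP, culture density cut under 30%, mutant RFP and density less affected; inactive = any of these conditions unmet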; note: one replicate is shown; some compounds called inactive have numbers as strong as hits
# Ecoli rRNA inh OD600 – also measured in Ecoli rRNA inh; calls as there; OD600 change, %; measured here: OD600 growth;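 optical density of the mix in the first replicate; 0 = DMSO median and -100 = no signal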
# Ecoli rRNA inh RFP – also measured in Ecoli rRNA inh; calls as there; RFP signal change, %; measured here: RFP humanized mutant strains;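 first replicate; 0 = DMSO median and -100 = no signal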
# * marks the source's active call; other numbers are inactive results; i = inactive; · = no result given; & = joins results of further samples.
# Order of results: Ecoli rRNA inh OD600	Ecoli rRNA inh RFP	HNF4A DNA FP	ALR H2O2 inh	FGF22 binding	UCH37 DUB inh	Beta2AR agonist	E coli growth	Ecoli rRNA inh
CC1(C)CC(=O)c2cc(C(=O)N3CCN(CCO)CC3)c(=O)n(-c3ccc(Cl)cc3)c2C1
 : ·	·	-1.9	-3	·	5.2	-3	0.69	·
CC1=CC2=NC(=O)CC(C)(C(=O)N(CC(=O)NC(C)(C)C)Cc3ccccc3)N2C=C1 (stereo unspecified)
 : 20	1.1	-4.3	-15	i	-229	-2	0.69	33
Cc1ccccc1C(=O)NCC(=O)Nc1ccccc1C(F)(F)F
 : 3	5.9	3.8	-7	i	0.5	-1	0.69	7
CC(CCC(=O)NN)C1CCC2C3CCC4CC(O)CCC4(C)C3CCC12C (stereo unspecified)
 : -2	3.4	3.5	·	i	·	-7	·	-2
CCN(CCNS(=O)(=O)c1ccc2[nH]c(=O)sc2c1)c1ccccc1
 : -11	6.6	0.1	98*	i	0.4	10	0.72	-6
O=C(NCc1ccco1)c1cc(-c2ccccc2)nn1CC1CC(c2cccnc2)=NO1 (stereo unspecified)
 : ·	·	-5.1	2	·	2.8	-4	0.68	·
CNC1=C(N(C(C)=O)c2ccc(Br)cc2)C(=O)c2ccccc2C1=O
 : ·	·	2.6	-83	·	51*	4	0.68	·
Cc1ccnc2nc(C(=O)OCC(=O)N(Cc3ccccc3)C(C)(C)C)nn12
 : 11	1.2	3.3	·	i	1.0	-6	0.68	5
N#Cc1c(NC(=O)CSc2ncnc3sccc23)oc(-c2ccco2)c1-c1ccco1
 : ·	·	3.2	-3	·	-1.9	-45	0.74	·
COc1ccc(NC(=O)CCCCCn2nnc3ccccc3c2=O)cc1
 : 14	-0.5	1.6	-8	i	6.1	-10	0.67	12
CCCCOC(=O)Nc1ccc(S(=O)(=O)Nc2nc(C)cc(C)n2)cc1
 : -8	-11	-3.8	9	i	6.7	19	0.67	-2
Cc1nnc(SCc2ccc([N+](=O)[O-])cc2)[nH]c1=O
 : 10	2.8	4.1	15	i	-0.6	7	0.65	10
O=C(NC(Cc1ccccc1)C(=O)NCCc1ccccn1)c1ccccc1 (stereo unspecified)
 : 1	-3.0	3.7	-2	i	1.3	1	0.66	2
COc1ccc(Nc2nc(C)cc(C)c2C#N)cc1
 : ·	·	0.1	-2	·	-14	-21	0.73	·
COc1ccccc1OCC(=O)Nc1ccc(CSc2ccccc2)cc1C
 : ·	·	14	·	·	0.5	10	0.7	·
N/C(CCCN1CCCCC1)=N/O
 : ·	·	1.0	-1	·	·	-6	·	·
CCOC(=O)Cc1csc(NC(=O)/C=C\c2ccccc2Cl)n1
 : -24	-3.0	-2.9	-2	·	3.2	4	0.69	-27
Fc1cccc(Oc2nc3ccccc3n3cccc23)c1
 : ·	·	-0.9	-3	·	-5.3	-14	0.71	·
CCCCN(C(=O)C(C)N1C(=O)c2ccccc2C1=O)c1c(N)n(CCCC)c(=O)[nH]c1=O (stereo unspecified)
 : 9	-1.5	5.2	-4	i	1.5	-26	0.7	4
CC1CCN(c2nc3c(c(=O)[nH]c(=O)n3C)n2CC(C)CSc2nnnn2-c2ccccc2)CC1 (stereo unspecified)
 : -71	-5.7	-4.2	1	i	2.4	2	0.69	-45
CCc1nnc(NC(=O)c2nc3nccc(C)n3n2)s1
 : ·	·	-2.9	4	·	5.8	2	0.7	·
COC(=O)C1C(C(=O)OC)C1(c1ccccc1)c1ccccc1 (stereo unspecified)
 : 3	1.0	1.2	3	i	1.7	-3	0.66	6
COc1ccc(-c2c(C3=CCCCC3)oc3ccc(-c4ccc5c(c4)OCO5)cc23)cn1
 : 4	-3.6	-3.6	-2	i	0.4	5	0.74	6
O=C(Nc1ccc2c(c1)OCCO2)N1CCN(c2ccc(F)cc2)CC1
 : ·	·	0.3	8	·	2.4	17	0.66	·
COc1ccc(CN(C)C(=O)C2CSC3(C)CCC(=O)N23)cc1OC (stereo unspecified)
 : 9	3.5	1.0	-3	i	1.8	-11	0.72	17
O=C(/C=C/[C@H]1O[C@@H](n2ccc(=O)[nH]c2=O)[C@H](O)[C@@H]1O)NCc1ccc2c(c1)OCO2
 : 1	-1.7	1.6	·	i	·	·	·	8
Cc1cccc(-n2ncc3c(Nc4c(C)n(C)n(-c5ccccc5)c4=O)ncnc32)c1
 : 17	-9.1	-2.3	-18	i	0.1	-3	0.66	15
Cc1c(NS(=O)(=O)c2ccc3c(c2)NC(=O)CC(=O)N3)cccc1[N+](=O)[O-]
 : 8	-4.6	-1.1	-7	i	1.0	3	0.63	5
COc1cccc(N2CCN(C(=O)CCC(=O)N3CCOc4ccc(C)cc43)CC2)c1
 : -12	4.9	4.0	89*	i	7.3	5	0.68	2
O=C(NNc1ccccc1)Nc1ccccc1F
 : 1	0.4	-0.4	0	i	6.6	3	0.64	-2
CC1CCC2(CC1)NC(=O)N(CC(=O)NC(=O)Nc1ccc3c(c1)OCCO3)C2=O (stereo unspecified)
 : 2	0.1	-0.7	·	i	1.6	3	0.77	20
CCS(=O)(=O)c1ccc(C(=O)Nc2ccccc2OC)c(Cl)c1Cl
 : -14	0.8	2.5	-1	i	1.2	-9	0.59	-12
CCC(=O)Nc1ccc(C(=O)CN2C(=O)NC3(CCOc4ccccc43)C2=O)cc1 (stereo unspecified)
 : 1	-3.2	2.0	-1	i	-0.4	-6	0.66	-2
O=C(CSCC(=O)N1CCN(c2ccccc2)CC1)Nc1nc(-c2ccc(Cl)s2)cs1
 : -28	-0.1	2.8	-11	i	2.5	3	0.76	-3
CCC(C)[C@H](NS(=O)(=O)c1ccc(C)cc1)C(=O)N1CCC(C(=O)N[C@@H](Cc2ccccc2)C(=O)O)CC1 (stereo partly specified)
 : 0	-4.6	2.8	-1	i	0.4	0	0.64	1
Cc1ccc(C)c(N(CC(=O)NC(C)(C)C)C(=O)CCC(=O)Nc2nccs2)c1
 : 7	0.3	-3.5	-5	i	0.0	-1	0.7	7
Cc1ccc(S(=O)(=O)NCCN2CCOCC2)c(C)c1C
 : 7	1.8	4.8	0	i	-1.5	13	0.65	18
COc1ccc(N=C2SC(C(=O)Nc3ccc4c(c3)OCO4)CC(=O)N2C)cc1 (stereo unspecified)
 : -10	4.5	-2.6&0.4	-2	i	2.1&4.3	-4&0	0.66&0.73	-2
COC(=O)c1ccc(NS(=O)(=O)NC(=O)c2cn(C)c3ccccc23)cc1
 : 3	-2.0	4.7	-4	i	1.5	-3	0.69	8
O=C(CN1C(=O)c2cccnc2Oc2ccc(Cl)cc21)N1CCCC1
 : 2	2.2	0.8	0	i	-0.6	5	0.64	12
COCC(C)NC(=O)c1ccccc1OC(C)=O (stereo unspecified)
 : ·	·	1.2	·	·	-11	9	0.69	·
COc1ccc(CCC(=O)Nc2cc(Cl)ccc2OC)cc1
 : ·	·	1.4	-4	·	0.8	-22	0.65	·
COc1ccc(NC(=O)N(C)[C@H]2C[C@H]3c4[nH]c5ccccc5c4CCN3C(=O)[C@H]2CO)cc1
 : -12	-3.1	-4.9	·	i	·	·	·	-2
COc1ccc(-c2csc(NC(=S)NC(=O)/C=C/c3ccccc3)n2)cc1Br
 : 6	7.7	·	-9	i	11	·	0.69	-16
Cc1ccc(CNC(=O)CN(CCc2ccccc2)S(C)(=O)=O)cc1
 : -2	2.0	0.1	-4	i	1.9	2	0.71	-1
C[C@@H]([C@H](O)c1ccccc1)N(C)C(=S)Nc1ccccc1
 : 10	-8.9	3.1	-2	i	0.7	-4	0.7	3
CCCCC[C@@H]1[C@H]2[C@H]3C(=O)N(c4ccccc4)C(=O)[C@H]3CC(=O)[C@H]2[C@H](c2ccccc2)N1S(=O)(=O)c1ccc(C)cc1
 : 9	2.3	-3.0	·	i	·	·	·	9
CCOc1ccsc1C(=O)NNC(=O)c1ccco1
 : 11	7.0	1.4	-1	i	1.0	8	0.69	0
Cc1ccc(OCc2ccc(C(=O)NNC(=S)NCC3CCCO3)o2)c([N+](=O)[O-])c1 (stereo unspecified)
 : 3	0.5	3.5	9	i	1.7	7	0.67	3
CCn1c(SCC(=O)Nc2cccc(NC(=O)c3ccco3)c2)nnc1-c1cccs1
 : ·	·	-0.4	·	·	1.8	14	0.75	·
COc1ccccc1CNC(=O)N1CCN(c2ccccc2C)CC1
 : -14	2.3	-0.2	-1	i	3.0	4	0.7	0
CC(C)C(OC(=O)c1ccco1)C(=O)NCc1ccccc1 (stereo unspecified)
 : ·	·	3.3	-8	·	0.9	-4	0.67	·
O=C(NNC(=O)c1csc(-c2cccnc2)n1)c1ccccc1
 : -2	0.1	-4.8	-5	i	1.3	5	0.65	-4
Cc1ccc(NC(=O)COC(=O)Cn2c(C)csc2=O)c([N+](=O)[O-])c1
 : 9	-1.4	-2.3	-5	i	6.3	-1	0.69	8
Cc1ccc2nc(NC(=O)Cn3cc4c(n3)CCCCC4)sc2c1
 : -3	2.4	1.2	·	i	1.2	-2	0.72	5
CC(C)c1ccc(N=c2c([N+](=O)[O-])nn(-c3ccc4c(c3)OCCO4)n2O)cc1
 : -2	1.2	-2.2	-6	i	2.5	23	0.66	6
CSCCC(=O)N1CCC(CCC(=O)NC2CC2)CC1
 : 15	1.0	2.3	0	i	4.2	0	0.69	2
CCN(Cc1cnn(C)c1)C(=O)c1ccc2nc(Cc3cccc(Cl)c3)oc2c1
 : -16	-0.9	5.1	-1	i	4.4	-7	0.69	-3
Nc1ccc(-c2cnc[nH]2)cc1[N+](=O)[O-]
 : -17	-3.7	0.4	-2	i	4.5	-6	0.63	5
O=C(NN=C1CCCC1)c1ccccc1OCCOc1ccccc1
 : 6	4.7	21	1	i	-2.8	2	0.67	-3

# 2 entries from above, as tab-separated lines:
Molecule	Ecoli rRNA inh OD600	Ecoli rRNA inh RFP	HNF4A DNA FP	ALR H2O2 inh	FGF22 binding	UCH37 DUB inh	Beta2AR agonist	E coli growth	Ecoli rRNA inh
O=C(NN=C1CCCC1)c1ccccc1OCCOc1ccccc1	6	4.7	21	1	i	-2.8	2	0.67	-3
C[C@@H]([C@H](O)c1ccccc1)N(C)C(=S)Nc1ccccc1	10	-8.9	3.1	-2	i	0.7	-4	0.7	3

# Continuation.
# Order of results: Ecoli rRNA inh OD600	Ecoli rRNA inh RFP	HNF4A DNA FP	ALR H2O2 inh	FGF22 binding	UCH37 DUB inh	Beta2AR agonist	E coli growth	Ecoli rRNA inh
C[C@@H]1CN([C@H](C)CO)C(=O)CCCn2cc(nn2)CO[C@H]1CN(C)S(=O)(=O)c1cccs1
 : 1&11	-2.4&1.1	-0.9	·	i	·	·	·	2&18
COc1ccccc1CNS(=O)(=O)c1csc(C(N)=O)c1
 : 12	-2.1	2.0	-3	i	5.2	9	0.66	3
CCC(=O)N1CCN(c2cc(C)ccc2C)CC1
 : ·	·	2.1	8	·	2.1	-3	0.75	·
CCOc1ccc(/C=N/Nc2ccc(C(F)(F)F)cc2[N+](=O)[O-])cc1O
 : ·	·	0.6	18	i	·	12	·	·
FC(F)(F)c1cccc(-c2nc(-c3ccncc3)no2)c1
 : 13	2.4	-3.5	-6	i	2.6	6	0.7	4
O=C(/C=C/c1ccc(Br)cc1)NCc1cccs1
 : -1	-3.5	0.5	-6	i	2.2	-7	0.7	5

# A portion of the library; rates above refer to the full screens.
